Source: PubChem
Marburg entry inh: Marburg virus entry inhibition; Marburg virus pseudotyped entry inhibition, cell reporter; control for the full effect not named in the record; about a third of the inactives were read at about 46 µM; Potency, µM (series often up to 37.8 µM), for the others: top-dose activity change, negative = inhibition, most hits filed as inhibitors; actives 1.8% (n = 300,000); AID 540276; active = well fitted inhibition curve with a large enough effect; inconclusive = small, poorly fitted or top-dose-only effect, or effect the other way; inactive = flat fitted curve, though single readings scatter; tested in HEK293 cells; about a fifth of its hits are not listed in these tables; note: % is set by controls: 0 for no effect and ±100 for the full control effect; luciferase read-out
StopGo reporter: lowers the luciferase signal of an FMDV 2A StopGo reporter. human cells with a luciferase reporter of 2A StopGo recoding; control for the full effect not named in the record. Potency, µM (highest dose often 57.9 µM), for inactives: top-dose signal change, negative = less light. actives 1.2% (n = 410,000). AID 1159524; active = well fitted falling curve with a large enough effect; inconclusive = small, poorly fitted or top-dose-only effect; inactive = no such curve, though single readings can be large or run the other way; tested in HEK293T cells; note: % is set by controls: 0 for no effect and ±100 for the full control effect; nearly all actives have a fitted effect of over 45% in size; luciferase light after 4 h
Cruzain inh noDet: inhibitors of Trypanosoma cruzi cruzain without detergent; purified cruzain, Z-FR-AMC fluorescence, no detergent; Potency, µM, inactives show max response, negative = inhibition, most hits filed as inhibitors; actives 2.3% (n = 200,000); AID 1476; active = well fitted curve in the direction sought with a large enough effect; inconclusive = small, poorly fitted or top-dose-only effect, or another doubt; inactive = no such curve, though single readings can be large; an effect the other way counts as inactive or inconclusive;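 note: plate controls were enzyme without inhibitor for no effect and buffer without enzyme for full effect; nearly all actives have a fitted effect of over 40% in size; top concentration of the series not given in the record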
Target sequence (P25779 123-467 limits assumed): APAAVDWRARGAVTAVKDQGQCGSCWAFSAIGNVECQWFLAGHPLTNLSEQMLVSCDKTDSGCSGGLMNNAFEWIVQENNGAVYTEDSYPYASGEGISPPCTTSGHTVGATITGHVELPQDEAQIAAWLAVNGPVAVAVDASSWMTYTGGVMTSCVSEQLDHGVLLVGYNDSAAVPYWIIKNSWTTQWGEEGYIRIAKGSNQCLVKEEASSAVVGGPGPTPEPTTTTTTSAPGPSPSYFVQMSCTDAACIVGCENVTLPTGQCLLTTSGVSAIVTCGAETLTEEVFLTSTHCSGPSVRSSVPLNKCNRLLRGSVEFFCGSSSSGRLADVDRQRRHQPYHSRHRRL
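Detergent-free condition (0.00005% Triton X-100) in acetate buffer pH 5.5 with DTT. 1.5 nM enzyme and compound were pre-mixed 15 min, then 2 uM Z-FR-AMC substrate added; reaction progress from fluorescence change between first and third reads (60 s).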
NS1 function inh: blocks influenza NS1 protein function; S. cerevisiae slowed by influenza A NS1, growth recovery by OD600; Potency, µM (titrated, usually from 46.1 µM), for the others: at the top dose activity, positive = more growth; actives 0.4% (n = 270,000); note: actives are rising curves; nearly all actives have a fitted effect of over 50% in size
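OD600 was taken as the measure of yeast growth restored by compound in an NS1-expressing S. cerevisiae strain. Cells had been washed out of glucose medium and diluted 1:100 into galactose -URA medium, pH 6.0.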
SARS PLP yeast: SARS-CoV PLP inhibition in yeast; S. cerevisiae expressing SARS-CoV PLpro, growth rescue; control for the full effect not named in the record; Potency, µM (series often up to 32.9 µM), inactives show top-dose activity, positive = growth rescue; actives 0.19% (n = 330,000); AID 485353; note: 0% is about no effect; nearly all actives have a fitted effect of over 55% in size; growth read by luminescence after 48 h
Cruzain Triton: blocks cruzain activity in presence of Triton detergent. P25779. purified cruzain, Z-FR-AMC fluorescence, 0.01% Triton. Potency, µM, for inactives: max response, negative = inhibition, actives largely listed as inhibitors. actives 0.43% (n = 200,000). AID 1478; active = well fitted curve in the direction sought with a large enough effect; inconclusive = small, poorly fitted or top-dose-only effect, or another doubt; inactive = no such curve, though single readings can be large; an effect the other way counts as inactive or inconclusive;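 note: plate controls were neutral wells for no effect and buffer without enzyme for full effect; nearly all actives have a fitted effect of over 40% in size; top concentration of the series not given in the record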
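Compounds were screened in titration against cruzain (1.5 nM) with 0.01% Triton X-100 to counter colloidal aggregation. Activity was the AMC fluorescence increase over 60 s after adding 2 uM Z-FR-AMC at pH 5.5.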
RE007 growth inh: less growth of the S. pombe RE007 Vpr strain | actives 0.21% (n = 360,000) | Potency, µM (highest dose often 92.2 µM), for inactives: at the highest dose activity change, negative = less growth | S. pombe RE007 Vpr strain, BacTiter-Glo ATP luminescence, 24 h; control for the full effect not named in the record; active = well fitted falling curve with a large enough effect; inconclusive = small, poorly fitted or top-dose-only effect; inactive = no such curve, though single readings can be large or run the other way;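 note: % is set by controls: 0 for no effect and ±100 for the full control effect; nearly all actives have a fitted effect of over 50% in size; the assay follows cell death caused by Vpr and the record does not say whether a fall means rescue or toxicity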
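Fission yeast strain RE007, carrying one chromosomally integrated HIV-1 vpr copy, was seeded at OD 0.01 in PMG+AL medium with 23 nL pinned compound. After 24 h at 30 °C and 99% humidity, viability was read by BacTiter-Glo luminescence.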
LASV entry inh: Lassa virus entry inhibition; Lassa virus pseudotype entry inhibition, cell reporter; control for the full effect not named in the record; Potency, µM (highest dose often 37.9 µM), for the others: top-dose activity change, negative = inhibition, most hits filed as inhibitors; actives 1.2% (n = 300,000); AID 540256; active means well fitted inhibition curve with a large enough effect; inconclusive means small, poorly fitted or top-dose-only effect, or effect the other way; inactive means flat fitted curve, though single readings scatter; tested in HEK293 cells; note: % is set by controls: 0 for no effect and ±100 for the full control effect; nearly all actives have a fitted effect of over 50% in size; luciferase read-out
An asterisk follows results filed as active; ? = inconclusive; . = not tested or not shown; [ ] = another dose, or the depositor's remark. Unless noted, calls come from the whole dose curve; as a rule, active means well fitted rising curve with a large enough effect; inconclusive means small, poorly fitted or top-dose-only effect; inactive means no such curve, though single readings can be large or run the other way. Potency is the fitted concentration of half-maximal effect.

SMILES	Marburg entry inh	StopGo reporter	Cruzain inh noDet	NS1 function inh	SARS PLP yeast	Cruzain Triton	RE007 growth inh	LASV entry inh
CN1CCN(c2ncc3c(n2)CC(c2ccccc2F)CC3=O)CC1 (stereo unspecified)	-1%	-21%	.	6%	-3%	.	5%	?
CCOC(=O)c1ccc(NC(=O)c2ccc(CN3CCOCC3)cc2)cc1	?	25µM*	-16%	-13%	0%	2.6%	-4%	?
COc1ccccc1C(=O)N1CCN(c2ccccn2)CC1	3%	.	-4%	0%	?	7.2%	4%	?
CC(=O)N1c2ccc(S(=O)(=O)NCC3CCC(C(=O)Nc4cc(C)ccn4)CC3)cc2CC1C (stereo unspecified)	5%[46.1 µM]	?	.	-24%	8%	.	-9%	2%[46.1 µM]
O=C(CCC(=O)N1CCOc2ccccc21)NCCCc1ccccc1	.	3%	.	-21%	2%	.	6%	.
O=C(O)C(Cc1ccc(O)c([N+](=O)[O-])c1)N1C(=O)c2ccccc2C1=O (stereo unspecified)	6%	-12%	.	.	.	.	1%	10%
CCOC(=O)C1=C(C)N(C)C(=O)NC1c1c(C)nn(-c2ccc(C)cc2)c1Cl (stereo unspecified)	?	?	3%	-47%	-12%	-0.4%	5%	-1%
Cc1cc(C)c2cc(C#N)c(N3CCCC3)nc2c1	6%	-3%	-6%	0%	-3%	-5.1%	-18%	7%
CCOc1ccc(/C=C\c2nc(O)c([N+](=O)[O-])c(=O)[nH]2)cc1OCC	.	11%	.	3%	-1%	.	2%	.
COc1ccc(-n2nc([N+](=O)[O-])c(=NCCC3=CCCCC3)n2O)cc1	9%	-3%	.	-2%	-2%	.	6%	24%
CCc1ccccc1NC(=O)CSC1=C(C#N)C(c2ccc3c(c2)OCO3)C2=C(CCCC2=O)N1 (stereo unspecified)	3%	-22%	-12%	-6%	0%	-5.8%	-2%	-5%
Cn1c(SCC(=O)NC2CC2)nnc1-c1cccc(NC(=O)c2ccccc2F)c1	1%	-3%	-1%	10%	-3%	0.7%	12%	8%
O=C(CSCc1c(F)cccc1Cl)NCc1ccco1	0%	.	2%	-4%	-4%	2.2%	2%	?
CCNC(=O)CN1C(=O)NC(CCc2ccccc2)C1=O (stereo unspecified)	13%	0%	-5%	13%	2%	1.7%	-5%	13%
COc1ccc(CCNC(=S)NC(=O)c2c(-c3ccccc3Cl)noc2C)cc1OC	.	-22%	.	18%	-1%	.	6%	.
CSc1ccc(/C=N/n2c(Cc3ccc(Br)cc3)n[nH]c2=S)cc1	25%[46.1 µM]	4%	.	.	-2%	.	2%	?
COc1ccc(C(=O)NC(CC(C)C)C(=O)O)cc1OC (stereo unspecified)	14%	12%	-3%	1%	-1%	7.0%	-2%	-5%
Cc1ccccc1C1C(C#N)=C(N)N(N(C)C)C2=C1C(=O)CC(C)(C)C2 (stereo unspecified)	?	-12%	.	-1%	1%	.	5%	?
CCn1cc([N+](=O)[O-])c(C(=O)NCc2ccc3c(c2)OCO3)n1	?	-1%	.	8%	0%	.	6%	-19%[46.1 µM]
COCCCNC(=O)c1ccc(-n2nc(C(F)(F)F)cc2-c2cccs2)cc1	0%	-27%	?	-84%	-13%	-7.8%	-5%	-8%
COc1ccc(CN(C(=O)/C=C/c2ccco2)C2CCS(=O)(=O)C2)cc1OC (stereo unspecified)	.	-4%	.	7%	-11%	.	-6%	.
Cc1cccc(C(=O)N2CCCC(N3CCN(c4ccc(F)cc4)CC3)C2)n1 (stereo unspecified)	.	-23%	.	-7%	0%	.	-22%	.
O=C(COC(=O)c1cccs1)Nc1cccc(S(=O)(=O)N2CCCCC2)c1	14%	-15%	.	.	-1%	.	18%	15%
C=CCn1c(N)c(C(=O)NCc2cccnc2)sc1=S	-16%	1%	2%	-15%	2%	0.8%	16%	1%
Clc1ccc(C=NN2CCCCCC2)c(Cl)c1	-14%	50%[activator]	.	.	.	.	-24%	20%
Cc1ccc(NC(=O)c2cc(S(=O)(=O)N3CCCC(C)C3)cn2C)c(Br)c1 (stereo unspecified)	.	-10%	?	.	.	-0.6%	.	-12%[46.1 µM]
CC(C)c1ccc(/C=C2\SC(=O)N(CC(=O)NC3C=CS(=O)(=O)C3)C2=O)cc1 (stereo unspecified)	.	-10%	.	18%	6%	.	-13%	.
COc1ccc(C(CC(=O)NCc2ccc(Cl)cc2)N2Cc3ccccc3C2=O)cc1OC (stereo unspecified)	.	19%	?	.	.	-3.0%	.	-8%[46.1 µM]
CNc1nc(Oc2ccccc2C(=O)OC)nc(SC)n1	?	1%	5%	1%	1%	-0.3%	10%	16%
COC(=O)CSc1nnc(-c2sc3ccccc3c2Cl)o1	-18%	?	-6%	-14%	-2%	-11%	-19%	?
O=C(Nc1ccccc1C(=O)NCCN1CCOCC1)c1ccc(Cl)cc1Cl	.	4%	.	5%	0%	.	5%	.
CCNc1cc2oc(=O)c(CN3CCOCC3)c(C)c2cc1C	-7%	31%[activator]	?	14%	29%	28µM*	16%	3%
CN(C)CC1CCC/C(=C\c2ccc(OC(=O)/C=C/c3ccc(Cl)c(Cl)c3)cc2)C1=O (stereo unspecified)	?	40µM*	.	.	.	.	-6%	12%
O=C(Nc1cccnc1)OCc1ccccc1	25%	45%[activator]	.	-1%	-1%	.	18%	-1%
O=C(COc1ccccc1N1C(=O)C2C3C=CC(C3)C2C1=O)c1ccccc1 (stereo unspecified)	-2%	3%	.	-4%	1%	.	-8%	11%
CC(C)(C)N(Cc1ccccc1)C(=O)COC(=O)c1ccc(S(=O)(=O)N2CCOCC2)cc1	-5%	?	.	.	1%	.	-1%	0%
O=C(O)CSc1nnc(-c2ccco2)o1	11%	-6%	-6%	2%	-5%	0.1%	8%	-2%
O=S(=O)(Nc1nccs1)c1ccc(F)cc1	.	2%	.	-2%	0%	.	11%	.
Cc1nc(SCc2ccccc2)n[nH]1	.	42%[activator]	.	3%	0%	.	2%	.
C[C@@H](NC(=O)[C@@H]1Cc2ccccc2CN1)C(=O)Nc1ccc2c(c1)OCCO2	.	7%	.	21%	19%	.	5%	.
CCN1CCN(c2nc3c(c(=O)[nH]c(=O)n3C)n2Cc2ccccc2)CC1	.	-12%	.	8%	15%	.	-21%	.
Cc1cccc(N2C(=O)N3[C@@H]4c5ccccc5OC[C@@H]4[C@@H](c4ccccc4)[C@@]3(C)C2=O)c1	.	-17%	.	?	-2%	.	2%	.
COc1cccc(CNC(=O)CCC(=O)N2CCSc3ccccc32)c1OC	.	-24%	.	-6%	-1%	.	-9%	.
CCN1CCC(O)(C#Cc2ccccc2)CC1	6%[46.1 µM]	6%	.	5%	-1%	.	2%	?
Cc1ccccc1NS(=O)(=O)c1ccc(OCC(=O)NCc2ccco2)cc1	-14%	-22%	0%	-13%	3%	-1.3%	0%	?
CCc1cc[n+](CC(=O)Nc2ccc(Cl)cc2Cl)cc1	-6%[46.1 µM]	0%	.	.	1%	.	?	13%[46.1 µM]
O=C(COc1ccc(/C=N/NC(=O)C(=O)N2CCCCCC2)cc1)Nc1ccccc1Cl	-12%	?	-6%	-2%	28%	-9.4%	5%	18%
Cc1ccc(CN(C(=O)c2csnn2)C(C(=O)NC2CCCC2)c2ccco2)cc1 (stereo unspecified)	?	19%	.	-8%	11%	.	-5%	?
CSc1ccccc1NC(=O)CN(C)CC(=O)Nc1cc(C)ccc1C	?	-29%	-4%	0%	13%	0.0%	-4%	-11%[46.1 µM]
Cc1cc(C)c(C)c(S(=O)(=O)N[C@@H](C)C(=O)OC(C)C(=O)NC(N)=O)c1C (stereo partly specified)	.	74%[activator]	.	-7%	-2%	.	-8%	.
CCC(C(=O)Nc1cc(F)ccc1F)n1nc(-c2cc(C)ccc2C)ccc1=O (stereo unspecified)	-16%[46.1 µM]	-8%	15%	.	.	-6.8%	.	26%[46.1 µM]
COP(=O)(/C=C/c1ccccc1)C(O)c1ccc(F)cc1 (stereo unspecified)	22%	28%	2%	-7%	2%	2.9%	6%	-6%
Cc1nc(C#N)c(N/N=C/c2cccc(Cl)c2)o1	12%	9%	6%	-39%	-23%	-9.1%	-2%	?
COc1cc(/C=N/n2cnnc2)ccc1OC(=O)c1ccco1	.	-18%	.	1%	-2%	.	-5%	.
COc1ccc(N2C(=O)C(CN3CCN(C)CC3)C2c2ccccc2)cc1 (stereo unspecified)	?	-16%	.	5%	0%	.	6%	0%
CCOC(=O)N1CCc2c(sc(NCc3sccc3C)c2C(=O)Nc2ccc(OC)cc2OC)C1	.	32µM*	28%	.	.	-3.1%	.	?
COc1cc2[nH]c(=O)n(Cc3ccc(C(=O)N4CCN(c5ccc(Cl)cc5)CC4)cc3)c(=O)c2cc1OC	?	25µM*	?	.	.	-5.2%	.	-24%[46.1 µM]
O=C(CN1CCCC1)Nc1ccc(-c2nc3cc(NC(=O)CN4CCCC4)ccc3o2)cc1	?	38%[activator]	21%	-6%[9.22 µM]	4%	-13%	3%	?
CCCN(C(=O)CSc1nc2cc(S(=O)(=O)N(CC)CC)ccc2o1)C1CCS(=O)(=O)C1 (stereo unspecified)	-3%[46.1 µM]	-21%	.	.	5%	.	25%	-21%
Cc1cc(N2C(=O)C(O)=C(C(=O)c3ccc(C)o3)C2c2cccs2)no1 (stereo unspecified)	-5%	-9%	-8%	11µM*	3%	3.2%	-21%	-13%
COCCn1c(C)cc(O)c(C(c2ccc(OC)cc2)N2CCCCC2)c1=O (stereo unspecified)	.	-15%	18%	.	.	0.6%	.	?

As entered above.
`CCC(C(=O)Nc1cc(F)ccc1F)n1nc(-c2cc(C)ccc2C)ccc1=O` (stereo unspecified) in Cruzain Triton is listed with -6.8%
`O=C(COc1ccccc1N1C(=O)C2C3C=CC(C3)C2C1=O)c1ccccc1` (stereo unspecified) in NS1 function inh is listed with -4%
